YopH inh = blocks Yersinia enterocolitica YopH tyrosine phosphatase. fluorescence Ex485/Em525. inhibition, %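 (about 10 µM by stock and volumes)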. 140,000 compounds, 0.16% hits. AID 898;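 active = inhibition of 50% or more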;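 also: controls were vehicle for no effect and minimum signal wells for full effect; inactives centre near -20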
Arbovirus inh = arbovirus infection inhibition. 200,000 compounds, 0.37% hits. arbovirus infection cell-based antiviral screen. AID 1251. inhibition, % at 10 µM;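 active = inhibition from about 30%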;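 also: bluetongue infection of BSR cells; cell survival read as ATP light after 72 h; 0% = infected wells without compound and 100% = uninfected wells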
Mtb bLac sens = beta-lactam sensitization of Mtb H37Rv. inhibition, % at 25 µM. AID 434955. M. tuberculosis H37Rv growth with meropenem, percent inhibition; hits of this screen are not shown here. 330,000 compounds, 0.27% hits;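 active = about 74% or more and at least 40 points above the plate without the antibiotic, then above 30% in a dose series; inconclusive = first-round hits that could not be retested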;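 also: growth measured after seven days incubation then overnight dye step; 0% = bacteria only wells and 100% = bacteria with antibiotic; twin plates without the antibiotic show which effects depend on it; some results filed as inactive read as strong as hits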
RecA intein inh = inhibitors of M. tuberculosis RecA intein splicing | AID 2221 | cell-free RecA intein splicing, fluorescence | inhibition, %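 (about 9 µM by stock and volumes)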 | P9WHJ3 | 290,000 compounds, 0.75% hits; in the data active = inhibition above about 30%; inconclusive = no clear call, values can overlap the other calls;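 also: 0% = vehicle wells and 100% = reference inhibitor control wells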
Target sequence (P9WHJ3 whole entry, looked up): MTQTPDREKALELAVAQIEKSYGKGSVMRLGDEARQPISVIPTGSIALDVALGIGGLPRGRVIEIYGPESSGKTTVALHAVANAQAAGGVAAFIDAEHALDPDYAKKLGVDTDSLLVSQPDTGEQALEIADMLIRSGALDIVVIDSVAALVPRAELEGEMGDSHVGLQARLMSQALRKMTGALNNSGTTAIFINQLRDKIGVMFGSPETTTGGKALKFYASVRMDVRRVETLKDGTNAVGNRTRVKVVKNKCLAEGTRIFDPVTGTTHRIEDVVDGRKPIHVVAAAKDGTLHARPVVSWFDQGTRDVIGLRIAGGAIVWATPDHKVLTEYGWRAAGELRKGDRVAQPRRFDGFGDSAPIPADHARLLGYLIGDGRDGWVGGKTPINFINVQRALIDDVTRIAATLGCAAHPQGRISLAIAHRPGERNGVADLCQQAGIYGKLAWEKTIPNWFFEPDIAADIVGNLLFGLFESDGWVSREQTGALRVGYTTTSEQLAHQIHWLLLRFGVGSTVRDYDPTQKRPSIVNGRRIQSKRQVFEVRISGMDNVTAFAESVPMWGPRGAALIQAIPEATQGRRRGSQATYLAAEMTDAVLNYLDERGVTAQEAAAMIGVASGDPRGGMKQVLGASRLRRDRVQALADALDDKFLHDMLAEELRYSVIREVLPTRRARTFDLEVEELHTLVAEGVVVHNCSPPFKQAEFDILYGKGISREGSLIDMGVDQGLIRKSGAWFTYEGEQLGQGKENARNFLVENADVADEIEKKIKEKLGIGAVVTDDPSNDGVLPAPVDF
Mtb growth = M. tuberculosis H37Rv growth inhibitors, H37Rv strain (AID 1626); inhibition, % at 10 µM, or IC50 in µM where a hit was titrated; 220,000 compounds, 0.95% hits; M. tuberculosis H37Rv growth inhibition; higher % means a stronger effect;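 active = confirmed in a dose series; inconclusive = inhibition above 80% but not taken into the dose series; inactive = below 80% or under 30% at every dose of the series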;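 also: bacteria incubated seven days before Alamar blue readout; 0% = bacteria only wells and 100% = bacteria with antibiotic wells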
Arbovirus inh repeat = further read-out of Arbovirus inh, marked with its call; inhibition, %; measured here: 10K subset replicate screen; many hits read low in the repeat;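 first of two repeat runs on a subset; 0% = infected and 100% = uninfected wells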
Starred values were filed as active, the others as inactive; ? = inconclusive; · = no result given; & = joins results of further samples. Only part of the results is shown; count on the stated rates, not on these rows.

SMILES | YopH inh | Arbovirus inh | Mtb bLac sens | RecA intein inh | Mtb growth | others
CCn1c(SCC(O)c2ccccc2)nnc1-c1ccccc1 (stereo unspecified) | -8.8 | -1.6 | -10.9 | -1.4 | 0.6%
CCOC(=O)N1CCC2(CC1)C(C#N)=C(N)Oc1c2sc2nc(C)cc(C)c12 | -30.1 | -7.2 | 4.4 | 6.0 | 11.0%
Cc1cc([N+](=O)[O-])cc2c1NCC1CC=CC21 (stereo unspecified) | 6.2 | 5.8 | 25.8 | 0.3 | 1.1%
CCn1ncc(C2=NOC(C(=O)Nc3ccc4c(c3)OCO4)C2)c1C (stereo unspecified) | -27.5 | 3.8 | -2.2 | 0.0 | 2.4%
COc1ccc(COC(=O)CCS(=O)(=O)c2ccc(C)cc2)cc1F | · | · | -2.8 | -6.4 | ·
CS(=O)(=O)N1CCN(C(=O)Nc2ccccc2)CC1 | · | 3.5 | 2.2 | 4.3 | -1.8%
Cc1ccc(C)c(OCC(O)CN2CCN(CCN3C(=O)c4cccc5cccc(c45)C3=O)CC2)c1 (stereo unspecified) | 8.0 | -30.6 | 98.5 | 4.8 | ?
CCc1ccc(NC(=O)CSc2n[nH]c(C)c2[N+](=O)[O-])cc1 | -6.7 | 3.2 | 58.7 | 1.1 | 90.5%
COc1ccccc1-c1c(C)nn2c(-c3ccccc3)cc(C)nc12 | · | · | 0.2 | 3.8 | 4.8%
COc1ccc(N2CCN(C(CNC(=O)c3ccc4c(c3)OCO4)c3ccco3)CC2)cc1 (stereo unspecified) | · | -6.7 | -8.4 | 0.2 | 7.5%
c1ccc(-c2[nH]ncc2CN2CCN(Cc3ccc4c(c3)OCO4)CC2)cc1 | · | · | -6.4 | -0.3 | -6.8%
COc1cc(C(=O)OCC(=O)NCCC2=CCCCC2)ccc1OCC(C)C | · | · | -1.9 | -2.0 | ·
CC(=O)NC1CC2CCCC(C1)N2Cc1ccc(C)cc1 (stereo unspecified) | · | · | -24.9 | -0.4 | ·
COc1cc(C(=O)NNC(=O)c2ccc(S(=O)(=O)N3CCCCC3)cc2)cc(OC)c1OC | 12.4 | 0.7 | 7.8 | 3.4 | 4.6%
Cc1ccc(CC(=O)O/N=C(\N)c2ccccn2)cc1 | · | · | 8.5 | 0.0 | ·

Of the compounds above, these have an aryl thioether with sulfur outside any ring:
SMILES | YopH inh | Arbovirus inh | Mtb bLac sens | RecA intein inh | Mtb growth | others
CCn1c(SCC(O)c2ccccc2)nnc1-c1ccccc1 (stereo unspecified) | -8.8 | -1.6 | -10.9 | -1.4 | 0.6%
CCc1ccc(NC(=O)CSc2n[nH]c(C)c2[N+](=O)[O-])cc1 | -6.7 | 3.2 | 58.7 | 1.1 | 90.5%

Remaining list, next part
SMILES | YopH inh | Arbovirus inh | Mtb bLac sens | RecA intein inh | Mtb growth | others
Cc1nc(NC(=O)c2ccc(Br)s2)sc1C(=O)N(C)C | -26.1 | -0.1 | -3.9 | 0.9 | -12.1%
COc1ccc(CNc2ncnc3sccc23)cc1 | · | · | -5.1 | -0.8 | ·
O=C(NC(Cc1ccccc1)C(=O)O)c1ccc(S(=O)(=O)N2CCOCC2)cc1 (stereo unspecified) | -71.2 | 2.9 | -9.1 | 4.7 | -8.1%
COc1ccc(N2CCN(C(=O)c3ccc(Oc4ccc(C(F)(F)F)cn4)cc3)CC2)cc1 | -27.0 | 3.9 | 63.7 | 31.1* | 8.2%
COc1ccc(-n2cc(CN3CCCC3)c(-c3cccc(F)c3)n2)cc1 | · | 0.8 | 3.5 | -0.6 | 15.4%
Cc1ccccc1NC(=O)Nc1cc(S(N)(=O)=O)ccc1C | -21.6 | -3.1 | 13.9 | -1.5 | 22.9%
CCC(C)(C)NC(=O)c1cc([N+](=O)[O-])ccc1N1CCOCC1 | -13.3 | -5.5 | -4.8 | 0.4 | 2.7%
COC(=O)c1ccccc1OCCOCCOc1cccc2cccnc12 | -16.2 | -5.3 | 4.2 | 2.7 | -0.4%
O=C(NCc1cccnc1)c1noc2c1CCCC2 | -26.1 | 0.5 | ? | 1.5 | -10.9%
CCCCNc1c2c(nc3c(-c4ccccc4)c(C)nn13)CCC2 | -16.0 | 5.7 | 96.5 | · | 9.8%
Cc1cc(N2CCOCC2)nc(N)n1 | · | 3.1 | 2.0 | -1.6 | 4.0%
CC1=C(C(=O)OCc2ccc3c(c2)OCO3)C(c2ccc(O)c([N+](=O)[O-])c2)NC(=O)N1 (stereo unspecified) | · | 12.3 | 2.5 | 0.9 | 1.0%
N#C/C(=C(/O)CSc1n[nH]c(N)n1)c1nc2ccccc2[nH]1 | · | · | -3.1 | 3.2 | -6.3%
Cc1ccc(NC(=O)NCCCl)cc1S(=O)(=O)N1CCOCC1 | · | · | -4.9 | -0.4 | 1.3%
Cc1nc2cc(S(=O)(=O)C(F)(F)F)ccc2s1 | -21.7 | -4.0 | -1.3 | -1.7 | -4.5%

Brought forward from above: three entries, followed by the next part.
SMILES | YopH inh | Arbovirus inh | Mtb bLac sens | RecA intein inh | Mtb growth | others
N#C/C(=C(/O)CSc1n[nH]c(N)n1)c1nc2ccccc2[nH]1 | · | · | -3.1 | 3.2 | -6.3%
Cc1ccc(NC(=O)NCCCl)cc1S(=O)(=O)N1CCOCC1 | · | · | -4.9 | -0.4 | 1.3%
Cc1nc2cc(S(=O)(=O)C(F)(F)F)ccc2s1 | -21.7 | -4.0 | -1.3 | -1.7 | -4.5%
Cc1nc(-c2nc(-c3c(C(=O)NNC(=O)Nc4ccccc4)noc3C)cs2)cs1 | · | · | -2.0 | 13.3 | 1.0%
CCc1nc(N[C@H](C(=O)O)C(C)CC)c2oc3ccccc3c2n1 (stereo partly specified) | 6.0 | 0.2 | -0.1 | 1.6 | 3.3%
COCCCNC(=O)Cn1nnc(-c2ccc(NC(=O)c3ccc(F)cc3)cc2)n1 | -33.7 | 8.2 | -1.6 | 2.4 | 2.4% | Arbovirus inh repeat=-3.0
Cc1cccc(OCC(=O)Nc2nnc(S(=O)(=O)N3CCC(C)CC3)s2)c1 | · | · | -12.8 | 0.8 | ·
CCC1CCCCN1C(=O)CCNC(=O)Cn1cnc2ccccc2c1=O (stereo unspecified) | · | · | 1.0 | 0.1 | ·
COc1ccc(CCCNC(=O)C2CCC(=O)N(CCCN3CCCC3=O)C2)cc1 (stereo unspecified) | · | · | 2.5 | 8.0 | ·
COc1ccc(Cc2nnc(NC(=O)Nc3cccc(OC)c3)s2)cc1 | · | · | 5.8 | -0.7 | ·
CCc1sc(C(=O)Nc2ccc(F)cc2C)cc1C | -2.2 | -4.8 | 44.5 | 2.6 | -1.5%
COc1ccc(NC(=O)CN(c2ccc([N+](=O)[O-])cc2)S(=O)(=O)c2ccccc2)c(OC)c1 | -9.0 | 0.3 | -5.9 | 5.7 | 2.3%
CN(CC(O)CN1CCOCC1)S(=O)(=O)O (stereo unspecified) | · | 8.4 | -0.6&2.8 | -1.5&2.5 | -8.4%&1.8%
Cc1ccc(N(C(=O)c2csnn2)C(C(=O)NC2CCCCC2)c2cccnc2)c(C)c1 (stereo unspecified) | · | · | -2.7 | 5.8 | ·
Cc1ccc(Nc2nnc(SCC(=O)NCCN3C(=O)CSC3=O)s2)cc1 | -28.7 | 9.1 | 7.0 | 2.4 | 10.4%
Cc1ccc(NC(=O)COc2ccccc2C=O)cc1Cl | · | 14.9 | -7.2 | 2.4 | -1.5%
CCCc1nc(SCC(N)=O)[nH]c(=O)c1CC | -41.1 | 2.2 | 5.3 | 2.1 | -0.8%
CN1C(C(=O)NCc2ccc(OC(F)(F)F)cc2)CC2Cn3c(nc4cc5ccccc5cc43)C21 (stereo unspecified) | · | · | 67.5 | 3.1 | 10.2%
COc1ccc(OC)c(NC(=O)CSc2nnc(N)s2)c1 | -7.3 | -1.9 | -4.8 | -1.8 | -5.1%
CN(C)CCCCOc1ccccc1F | · | 5.7 | -1.6 | 1.1 | -6.5%
COc1ccccc1NC(=O)[C@H](COCc1ccccc1)NC(=O)OC(C)(C)C | -20.7 | -2.4 | 2.1 | 1.8 | 0.5%
Cc1cccc(CSC2=NN3CCCC(=O)N=C3S2)c1 | -15.1 | -11.5 | -5.0 | -0.1 | 9.3%
C=CCN=c1scc(-c2ccc(F)cc2)n1/N=C/c1ccccn1 | -19.0 | 1.2 | · | -7.5 | -2.7%
Cc1cc(C(=O)c2ccc(Cl)cc2)c(NC(=O)CCl)s1 | -5.3 | -37.2 | 96.5 | 33.5* | 73.2%
CC1(c2nnc(Cc3ccccc3)o2)CC(c2ccccc2Br)=NO1 (stereo unspecified) | · | · | -2.0 | 1.0 | ·
Cc1ccc(Cc2nnc(SCC(=O)Nc3c(C)cccc3C)[nH]c2=O)cc1 | · | · | -11.6 | 0.7 | ·
CCOC(=O)N1CCN(Cc2cn[nH]c2-c2ccc(-c3ccccc3)cc2)CC1 | · | -14.1 | 25.8 | 0.5 | 15.2%
CCOC(=O)C1=C(O)C(=O)N(CCCn2ccnc2)C1c1ccc(OC)cc1 (stereo unspecified) | · | -5.0 | -7.8 | -0.6 | 1.3%
Nc1nc(-c2ccccc2)nn1S(=O)(=O)c1ccccc1 | · | -2.0 | 2.3 | 1.3 | 9.9%
CN(C1=NC(=O)C(CC(=O)Nc2ccc(Br)cc2)S1)c1ccc(O)cc1 (stereo unspecified) | -20.5 | 17.8 | -7.1 | -1.0 | 8.9%
COc1ccc(NC(=O)COC(=O)C23CC4CC(CC(Cl)(C4)C2)C3)c(OC)c1 | · | 11.3 | -3.0 | 0.8 | 9.3%
CCOC(=O)c1[nH]c2ccc(OC)cc2c1NC(=O)c1ccc2c(c1)OCO2 | -27.7 | -4.6 | -3.7 | -1.5 | -8.9%
O=C(NC1CCN(c2ncccn2)CC1)c1ccccc1F | · | · | -8.7 | -1.1 | ·

Among those listed so far, these contain bromine.
SMILES | YopH inh | Arbovirus inh | Mtb bLac sens | RecA intein inh | Mtb growth | others
Cc1nc(NC(=O)c2ccc(Br)s2)sc1C(=O)N(C)C | -26.1 | -0.1 | -3.9 | 0.9 | -12.1%
CC1(c2nnc(Cc3ccccc3)o2)CC(c2ccccc2Br)=NO1 (stereo unspecified) | · | · | -2.0 | 1.0 | ·
CN(C1=NC(=O)C(CC(=O)Nc2ccc(Br)cc2)S1)c1ccc(O)cc1 (stereo unspecified) | -20.5 | 17.8 | -7.1 | -1.0 | 8.9%

More records follow.
SMILES | YopH inh | Arbovirus inh | Mtb bLac sens | RecA intein inh | Mtb growth | others
CCCn1c2ccccc2c2nnc(SCc3[nH]c(=O)[nH]c3C(=O)CCCCC(=O)OCC)nc21 | -21.9 | -1.4 | 2.1 | 1.3 | -4.5%
CC(C)C[C@H](NC(=O)c1nc[nH]c1C(=O)NC1CCNCC1)C(=O)OCc1ccccc1 | · | · | -8.6 | 0.5 | ·
CCC(=O)Nc1ccc(NC(=O)c2ccc3c(c2)OCO3)cc1 | -7.2 | -0.9 | -10.8 | 0.4 | 1.4%
Cc1ccc(/C=N/N2C(=O)c3ccccc3NC2c2ccc(C)cc2)cc1 (stereo unspecified) | -16.6 | 3.1 | ? | -6.7 | 2.2%
C=C(CC1CC(O)[C@]2(C)OC3CC4OC5C[C@]6(C)O[C@]7(C)CCC8OC9C[C@]%10(C)OC%11C(C)=CC(=O)OC%11CC%10OC9C[C@@H](C)C8OC7CC6O[C@]5(C)C/C=C\C4OC3CC2O1)C(=O)O (stereo partly specified) | · | 11.7 | -7.9 | 4.6 | -8.1%
CCC(C)(C)NC(=O)CN(C(=O)CNS(=O)(=O)c1ccccc1)c1ccccc1 | -37.4 | 1.4 | -2.8 | 0.5 | -6.7%
COc1ccc(-c2noc(CCCC(=O)NCC3CCCO3)n2)cc1 (stereo unspecified) | · | · | -11.3 | 0.4 | ·
Cc1nn(C(=O)c2nn(C)cc2Cl)c(C)c1Br | -23.2 | -2.0 | -0.3 | 6.9 | -7.1%
CCCCOc1ccc(-c2nnn(CC(=O)c3c[nH]c4ccccc34)n2)cc1 | -3.3 | 6.1 | -6.2 | -0.6 | -9.8%
COc1ccc(OC)c(C(=O)c2ccc(C(=O)N3CCCCC3)cc2)c1 | -38.0 | -5.6 | ? | 0.5 | -2.1%
CCc1nnc(NC(=O)C2CC(=O)N(Cc3ccccc3)C2)s1 (stereo unspecified) | · | 6.2 | -6.3 | -0.6 | 3.1%
CC(C)[C@H](NC(=O)[C@@H]1Cc2c([nH]c3ccccc23)C2c3ccccc3C(=O)N21)C(=O)N1CCC[C@@H]1C(=O)O (stereo partly specified) | · | · | -9.8 | 0.7 | ·
Cc1oc(-c2ccc(Cl)cc2)nc1CS(=O)CC(=O)NCCCN(C)C1CCCCC1 (stereo unspecified) | -7.5 | -18.6 | -15.8 | 6.6 | -4.4%
O=c1[nH]c(=O)n(C2CCCCC2)c(O)c1C1NCCc2ccccc21 (stereo unspecified) | -21.7 | 7.4 | 7.0 | 0.7 | -2.6%
Cc1ccc(C)c(NC(=O)C2CCCN2C(=O)NC2CCCCC2)c1 (stereo unspecified) | · | -3.5 | 6.5 | -1.1 | 4.2%
